GLA inh pH 4.5 = alpha-galactosidase A (human) inhibition, pH 4.5; activity change, negative = inhibition, % at 105 µM; AID 1467; P06280; purified enzyme, 4-MU-alpha-Gal fluorescence, pH 4.5; 230,000 tested, under 10 active; inconclusive = small, poorly fitted or top-dose-only inhibition, or a rising curve; inactive = flat fitted curve, though single readings scatter; no compound was filed as active;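 further: 0% = full activity with enzyme and -100% = basal without enzyme; dose as in the result columns while the protocol names 77 µM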
Rango-impB inh = inhibitors of Rango-importin beta complex formation | Q14974 | Rango CFP/YFP FRET sensor + importin beta, 45 min | Potency, µM (highest dose often 92.2 µM), without a hit: at the highest dose inhibition of complex formation | 0.031% of 340,000 active | AID 540263; active = rising FRET ratio curve, often small or poorly fitted; inconclusive = mostly compound fluorescence or quenching in the first reads; inactive = flat curves in all reads;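 further: potency means the concentration at half of the fitted maximal effect; 0% = DMSO wells and 100% = buffer wells lacking importin beta; nearly all actives have a fitted effect of over 15% in size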
Target sequence (Q14974 whole entry, looked up): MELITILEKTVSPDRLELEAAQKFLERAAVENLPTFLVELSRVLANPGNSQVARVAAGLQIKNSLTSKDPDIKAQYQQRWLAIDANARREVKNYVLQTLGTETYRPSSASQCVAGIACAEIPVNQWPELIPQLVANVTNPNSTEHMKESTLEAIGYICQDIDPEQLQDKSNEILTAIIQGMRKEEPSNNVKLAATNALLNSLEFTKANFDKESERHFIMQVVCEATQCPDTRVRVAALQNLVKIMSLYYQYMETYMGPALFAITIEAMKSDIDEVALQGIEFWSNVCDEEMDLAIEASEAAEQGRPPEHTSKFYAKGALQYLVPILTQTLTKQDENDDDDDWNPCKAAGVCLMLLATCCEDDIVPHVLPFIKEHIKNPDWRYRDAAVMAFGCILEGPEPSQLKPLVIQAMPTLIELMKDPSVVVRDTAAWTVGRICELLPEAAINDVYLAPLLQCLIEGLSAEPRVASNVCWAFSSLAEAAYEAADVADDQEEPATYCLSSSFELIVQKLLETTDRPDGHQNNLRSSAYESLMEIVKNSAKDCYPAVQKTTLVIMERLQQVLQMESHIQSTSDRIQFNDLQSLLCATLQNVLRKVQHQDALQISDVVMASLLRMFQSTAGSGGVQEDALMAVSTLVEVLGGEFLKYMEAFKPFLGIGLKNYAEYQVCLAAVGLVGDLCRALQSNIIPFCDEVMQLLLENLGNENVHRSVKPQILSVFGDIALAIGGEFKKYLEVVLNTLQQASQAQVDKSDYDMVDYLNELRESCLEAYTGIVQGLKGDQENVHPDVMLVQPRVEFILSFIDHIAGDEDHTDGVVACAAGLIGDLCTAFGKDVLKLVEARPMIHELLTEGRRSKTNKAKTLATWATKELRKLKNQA
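FRET biosensor (snurportin 1 IBB flanked by EYFP and cerulean), 50 nM, with compound 5 min, then 0.125 microM importin beta in PBS, 1 mM DTT, 0.02% Tween-20, 0.1% BSA. CFP/YFP ratio read after 45 min at room temperature; pre-read flags interference.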
miR-21 FLuc = raises the signal of a miR-21 reporter; HeLa miR-21 FLuc reporter, luciferase, 48 h; Potency, µM (titrated, usually from 38.3 µM), inactives show at the top dose reporter change, positive = more light; 340,000 tested, under 10 active; active = well fitted rising curve with a large enough effect; inconclusive = small, poorly fitted or top-dose-only effect; inactive = no such curve, though single readings can be large or run the other way;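 further: % of control where 0% means no effect; miR-21 action dims this reporter so a rising signal means less miR-21 action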
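HeLa cells stably expressing CMV-driven firefly luciferase with a downstream miR-21 binding sequence, endogenously expressing miR-21, were treated with titrations (up to about 40uM final) for 48 hours at 37 degree Celsius. Luciferase luminescence was read after lysis.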
Rango dissoc inh = prevents RanGTP from dissociating the Rango-importin beta complex | O95149+P62826 | Biochemical FRET Rango-importin beta, RanGTP-induced dissociation | Potency, µM (top dose mostly 46.1 µM), without a hit: at the top dose activity change, negative = inhibition | 0.071% of 340,000 active | AID 540253; active means falling FRET ratio curve, often poorly fitted, with flat reads before Ran was added; inconclusive means other falling curves, or compound fluorescence or quenching; inactive means flat or rising ratio curve;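 further: potency means the concentration at half of the fitted maximal effect; % of control where 0% means no effect; nearly all actives have a fitted effect of over 45% in size; -100% = wells without RanGTP and RCC1; the record marks most hits as doubtful in a second field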
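Compounds sat 5 min at room temperature with 0.1 uM Rango biosensor plus 0.25 uM importin beta, then FRET pre-read. RanGTP-RCC1 (0.6 uM Ran, 2mM GTP, 0.2 uM RCC1) added for 45 min, and the CFP/YFP post-read measured blocked complex dissociation.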
* hit, by the source's call.

CCOc1ccc(NC(=O)COC(=O)C2C3CC4OC(=O)C2C4C3)cc1 (centres undefined) was read as Rango-impB inh 3.2%, miR-21 FLuc -3% and Rango dissoc inh -7%.
Screening Cc1c(NC(=O)COC(=O)c2ccc(Br)o2)c(=O)n(-c2ccccc2)n1C returned GLA inh pH 4.5 6, Rango-impB inh -2.2%, miR-21 FLuc -1% and Rango dissoc inh 0%.
Screening CN(c1ccccc1)S(=O)(=O)CS(=O)(=O)N(C)c1ccccc1 returned Rango-impB inh 2.9% and Rango dissoc inh -8%.
Screening CNC[C@H]1Oc2ccc(NC(=O)Nc3ccc4c(c3)OCO4)cc2C(=O)N([C@H](C)CO)C[C@@H]1C returned Rango-impB inh -4.1% and Rango dissoc inh -4%.
COC(=O)C1CCN(S(=O)(=O)c2ccc(NC(C)=O)cc2)CC1 was read as GLA inh pH 4.5 -9, Rango-impB inh -0.2%, miR-21 FLuc 0% and Rango dissoc inh 18%.
`CCOC(=O)c1sc(NC(=O)c2ccc(S(=O)(=O)N(CC)CC)cc2)nc1C` gave GLA inh pH 4.5 -2, Rango-impB inh 0.3%, miR-21 FLuc 3% and Rango dissoc inh -5%.
`Cc1ccc(Nc2nnc(SCc3nc4ccccc4c(=O)[nH]3)s2)cc1` gave GLA inh pH 4.5 -5, Rango-impB inh -4.2%, miR-21 FLuc -3% and Rango dissoc inh -9%.
Screening COC(=O)/C(=C/c1cccc([N+](=O)[O-])c1)NC(=O)c1ccc(OC)cc1 returned GLA inh pH 4.5 4, Rango-impB inh -0.2%, miR-21 FLuc -67% and Rango dissoc inh -5%.
`Cc1nc(N2CCN(C(c3ccccc3)c3ccccc3)CC2)[nH]c(=O)c1C` gave GLA inh pH 4.5 -1, Rango-impB inh 0.2%, miR-21 FLuc -7% and Rango dissoc inh 16%.
CCc1ccc(OC)c(S(=O)(=O)Nc2ccc(Cc3ccncc3)cc2)c1 was read as Rango-impB inh 0.2%, miR-21 FLuc 18% and Rango dissoc inh 4%.
For O=C(Nc1ccccc1)C1=C(O)CC(c2ccoc2)CC1=Nc1ccccc1 (centres undefined) the results were GLA inh pH 4.5 -2, Rango-impB inh -2.2%, miR-21 FLuc -12% and Rango dissoc inh -14%.
`CC1CN(CC(O)COc2ccc(C(C)C)cc2)CC(C)O1` (centres undefined) gave GLA inh pH 4.5 5, Rango-impB inh -4.2%, miR-21 FLuc -9% and Rango dissoc inh 1%.
`CCCCC12CN3CCN(CC(C3)/C1=N\NC(=O)c1ccccc1N)C2` gave GLA inh pH 4.5 -1, Rango-impB inh 2.0%, miR-21 FLuc -62% and Rango dissoc inh 0%.
For Cc1cnc(C(=O)OC(C)C(=O)Nc2ccc(Oc3ccccc3)cc2)cn1 (centres undefined) the results were Rango-impB inh 2.7% and Rango dissoc inh -1%.
For c1ccc2c3n(nc2c1)CCCCO3 the results were Rango-impB inh 1.2% and Rango dissoc inh -20%.
Screening CC(=O)Nc1ccc(-n2c(C)ccc2-c2ccccc2)cc1 returned Rango-impB inh 0.4%, miR-21 FLuc 1% and Rango dissoc inh 1%.
CCOc1ccc(-c2c[n+](=O)c3c(n2[O-])CCCC3)c(OCC)c1 was read as GLA inh pH 4.5 -3, Rango-impB inh -1.2%, miR-21 FLuc -10% and Rango dissoc inh 10%.
CCOCc1c(C(=O)OCC(=O)/C(C#N)=C(\C)N)oc2ccccc12 was read as GLA inh pH 4.5 -6, Rango-impB inh 0.3%, miR-21 FLuc 1% and Rango dissoc inh -5%.
For O=C(NN1C(=O)c2ccccc2NC1c1ccco1)c1ccc(Br)cc1 (centres undefined) the results were GLA inh pH 4.5 -7, Rango-impB inh 0.1%, miR-21 FLuc -29% and Rango dissoc inh 15%.
Screening C#CCN(Cc1ccccc1)S(=O)(=O)C=C returned Rango-impB inh -1.1% and Rango dissoc inh -11%.
CN(C)CC(C)(C)CNC(=O)C1CCN(CCCc2ccccc2)CC1 was read as Rango-impB inh 1.6%, miR-21 FLuc -8% and Rango dissoc inh -7%.
O=[N+]([O-])c1cccc(CN2[C@@H](Cc3ccccc3)COCCS2(=O)=O)c1 was read as Rango-impB inh -5.5% and Rango dissoc inh 0%.
`COc1ccc(Cl)cc1C1=CC(=O)C[C@H](c2ccc(F)cc2)C1` gave Rango-impB inh -0.6% and Rango dissoc inh -7%.
C=CCNC(=O)c1ccccc1NC(=O)COc1ccc(OC)cc1 was read as GLA inh pH 4.5 -2, Rango-impB inh 2.6%, miR-21 FLuc -11% and Rango dissoc inh -13%.
`Cc1ccc(N(Cc2ccc(C(=O)NCCSc3ccccn3)cc2)S(C)(=O)=O)cc1C` gave GLA inh pH 4.5 -1, Rango-impB inh 0.9%, miR-21 FLuc 23% and Rango dissoc inh 0%.
For CN(C(=O)CSc1nc2ccccc2c(=O)n1C)C1CCS(=O)(=O)C1 (centres undefined) the results were Rango-impB inh -3.0% and Rango dissoc inh -1%.
OCCNCc1cc(Br)ccc1OCc1ccc(F)cc1 was read as GLA inh pH 4.5 3, Rango-impB inh -0.4%, miR-21 FLuc 3% and Rango dissoc inh 41%.
For CN1CCN(c2ccc(Cl)cc2NC(=O)c2ccc(S(=O)(=O)N(C)C)cc2)CC1 the results were GLA inh pH 4.5 -2, Rango-impB inh 0.8%, miR-21 FLuc 0% and Rango dissoc inh 23%.
COC(=O)c1ccc(-n2nnnc2SCC(=O)N2CCCCC2)cc1 was read as GLA inh pH 4.5 2, Rango-impB inh 0.1%, miR-21 FLuc -1% and Rango dissoc inh 27%.
CCC(=O)N1CCC2(CC1)Oc1ccc(F)cc1C(=O)C21CC(c2ccc(Cl)cc2)=NO1 (centres undefined) was read as GLA inh pH 4.5 -16, Rango-impB inh 2.3%, miR-21 FLuc 18% and Rango dissoc inh 6%.
`CC(=O)C1=C(C)N(Cc2ccccc2)C(=O)N[C@@H]1c1cccc(C(F)(F)F)c1` gave GLA inh pH 4.5 4, Rango-impB inh -0.1%, miR-21 FLuc -7% and Rango dissoc inh -3%.
CN(C)C(=O)CCc1ccc2c3c([nH]c2c1)[C@]1(C)[C@@H](C(=O)N2CCCCC2)C[C@H](CC(=O)NCCC2=CCCCC2)C(=O)N1CC3 was read as Rango-impB inh -3.8% and Rango dissoc inh -21%.
`Cc1ccc(C(=O)C(C)Sc2nnc(N)s2)cc1` (centres undefined) gave GLA inh pH 4.5 -22, Rango-impB inh -1.5%, miR-21 FLuc -23% and Rango dissoc inh 2%.
Screening O=C(C1=C[C@H](C2CC2)C[C@H](OCc2ccc(CO)cc2)O1)N1CCN(Cc2ccccc2)CC1 returned GLA inh pH 4.5 -3, Rango-impB inh 1.6%, miR-21 FLuc 13% and Rango dissoc inh 3%.
Screening COC(=O)c1cc(COC(=O)c2nc3nc(C)cc(C)n3n2)oc1C returned GLA inh pH 4.5 -19, Rango-impB inh 0.5%, miR-21 FLuc 4% and Rango dissoc inh -20%.
COc1ccc(/C=N/Nc2ccc(C(F)(F)F)cc2[N+](=O)[O-])cc1 was read as GLA inh pH 4.5 -9, Rango-impB inh 0.5%, miR-21 FLuc -6% and Rango dissoc inh 2%.
`CCc1cc(=O)oc2cc(C)cc(OC(C)C(=O)NCCN3CCOCC3)c12` (centres undefined) gave Rango-impB inh -0.5%, miR-21 FLuc -1% and Rango dissoc inh 35%.
For Cc1ccc(-n2cc3c(=O)n(C)c(=O)n(C)c3c2)cc1C the results were GLA inh pH 4.5 6, Rango-impB inh 2.2%, miR-21 FLuc -21% and Rango dissoc inh 19%.
`COC(=O)c1ccccc1NC(=O)CSc1nnc(Cc2ccc(Cl)cc2)o1` gave GLA inh pH 4.5 1, Rango-impB inh -1.8%, miR-21 FLuc -5% and Rango dissoc inh -5%.
`COc1ccc(CCC(=O)Nc2cnc3ccccc3c2)cc1` gave Rango-impB inh 1.8%, miR-21 FLuc -26% and Rango dissoc inh 0%.
`c1ccc(Cn2nnc3c(NCc4ccc5c(c4)OCO5)ncnc32)cc1` gave GLA inh pH 4.5 -10, Rango-impB inh -0.7%, miR-21 FLuc 8% and Rango dissoc inh 7%.
`COc1ccccc1/C=C(/C(=O)OCC(N)=O)c1ccccc1` gave GLA inh pH 4.5 -2, Rango-impB inh 1.2%, miR-21 FLuc 0% and Rango dissoc inh 5%.
Screening CCCNS(=O)(=O)/C=C/c1ccccc1 returned GLA inh pH 4.5 7, Rango-impB inh 3.9%, miR-21 FLuc 0% and Rango dissoc inh -15%.
CCC(=O)N1CCc2cc(Br)cc(S(=O)(=O)C3(C(=O)OC)CC3)c21 was read as GLA inh pH 4.5 -2, Rango-impB inh -0.1%, miR-21 FLuc -5% and Rango dissoc inh -11%.
O=C1c2ccc(-c3ccc(F)cc3OCc3ccccc3)cc2S(=O)(=O)c2cccc(C(=O)N3CCN(c4ncc(Cl)cc4Cl)CC3)c21 was read as Rango-impB inh 0.7% and Rango dissoc inh -7%.
COc1ccc(NC(=O)C(CCS(C)(=O)=O)N2C(=O)c3ccccc3C2=O)cc1 (centres undefined) was read as GLA inh pH 4.5 2, Rango-impB inh inconclusive, miR-21 FLuc -4% and Rango dissoc inh 12%.
For CC(C)CC(=O)NC(=S)Nc1sc2c(c1C(N)=O)CCC2 the results were GLA inh pH 4.5 -1, Rango-impB inh inconclusive, miR-21 FLuc -20% and Rango dissoc inh 2%.
For CC(C)CC(=O)N1CCN(Cc2cccc([N+](=O)[O-])c2)CC1 the results were GLA inh pH 4.5 0, Rango-impB inh 0.1%, miR-21 FLuc 1% and Rango dissoc inh -10%.

Next section; the last 3 above are carried over.
COc1ccc(NC(=O)C(CCS(C)(=O)=O)N2C(=O)c3ccccc3C2=O)cc1 (centres undefined) was read as GLA inh pH 4.5 2, Rango-impB inh inconclusive, miR-21 FLuc -4% and Rango dissoc inh 12%.
For CC(C)CC(=O)NC(=S)Nc1sc2c(c1C(N)=O)CCC2 the results were GLA inh pH 4.5 -1, Rango-impB inh inconclusive, miR-21 FLuc -20% and Rango dissoc inh 2%.
For CC(C)CC(=O)N1CCN(Cc2cccc([N+](=O)[O-])c2)CC1 the results were GLA inh pH 4.5 0, Rango-impB inh 0.1%, miR-21 FLuc 1% and Rango dissoc inh -10%.
Screening CSc1ccc(/C=C/C(=O)NC23CC4CC(CC(C4)C2)C3)cc1 returned GLA inh pH 4.5 8, Rango-impB inh 5.6%, miR-21 FLuc -46% and Rango dissoc inh -4%.
`O=C(N/N=C/c1ccc([N+](=O)[O-])cc1)c1cnccn1` gave GLA inh pH 4.5 -1, Rango-impB inh -0.9%, miR-21 FLuc 0% and Rango dissoc inh -1%.
For CC(=O)Nc1ccc(CN2CCN(CC(C)C)C(CCO)C2)cc1 (centres undefined) the results were GLA inh pH 4.5 9, Rango-impB inh 5.7%, miR-21 FLuc 0% and Rango dissoc inh inconclusive.
Screening COc1ccc(NC(=O)N2CCC(NC(=O)c3ccco3)CC2)cc1 returned GLA inh pH 4.5 -1, Rango-impB inh 0.9%, miR-21 FLuc -1% and Rango dissoc inh 17%.
`Cc1cccc(NS(=O)(=O)c2nnc(NC(=O)c3ccc(Cl)cc3)s2)c1` gave Rango-impB inh -0.4%, miR-21 FLuc -7% and Rango dissoc inh 5%.
O=S1(=O)CC(O)C(N=Nc2c(O)n(Cc3ccccc3)c3ccccc23)C1 (centres undefined) was read as GLA inh pH 4.5 -5, Rango-impB inh -6.8%, miR-21 FLuc -12% and Rango dissoc inh -27%.
N#CC(=Nc1ccccc1)c1ccccc1 was read as Rango-impB inh 5.9% and Rango dissoc inh -2%.
Screening Fc1ccc(C2CC(c3ccco3)=Nc3ccccc3S2)cc1 (centres undefined) returned GLA inh pH 4.5 -2, Rango-impB inh -1.4%, miR-21 FLuc -21% and Rango dissoc inh 11%.
`O=c1[nH]c(=S)[nH]nc1Cc1ccc(Cl)c(Cl)c1` gave Rango-impB inh 5.3%, miR-21 FLuc -1% and Rango dissoc inh 6%.
`Cn1c(=O)c(-c2ccccc2)c(O)c2ccccc21` gave GLA inh pH 4.5 1, Rango-impB inh -2.8%, miR-21 FLuc 1% and Rango dissoc inh -4%.
Screening O=C1N(C2CCCC2)C[C@@H]2C[C@@H](c3cccn3-c3nccs3)N3CCC[C@@]123 returned GLA inh pH 4.5 2, Rango-impB inh -5.6%, miR-21 FLuc -2% and Rango dissoc inh 1%.

The list is partial, so the mix of outcomes need not match the whole.
